RecA intein inh: inhibitors of M. tuberculosis RecA intein splicing | P9WHJ3 | cell-free RecA intein splicing, fluorescence | inhibition, %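 (about 9 µM by stock and volumes)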 | hit rate 0.75% among 290,000; in the data active = inhibition above about 30%; inconclusive = no clear call, values can overlap the other calls;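 note: 0% = vehicle wells and 100% = reference inhibitor control wells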
Target sequence (P9WHJ3 whole entry, looked up): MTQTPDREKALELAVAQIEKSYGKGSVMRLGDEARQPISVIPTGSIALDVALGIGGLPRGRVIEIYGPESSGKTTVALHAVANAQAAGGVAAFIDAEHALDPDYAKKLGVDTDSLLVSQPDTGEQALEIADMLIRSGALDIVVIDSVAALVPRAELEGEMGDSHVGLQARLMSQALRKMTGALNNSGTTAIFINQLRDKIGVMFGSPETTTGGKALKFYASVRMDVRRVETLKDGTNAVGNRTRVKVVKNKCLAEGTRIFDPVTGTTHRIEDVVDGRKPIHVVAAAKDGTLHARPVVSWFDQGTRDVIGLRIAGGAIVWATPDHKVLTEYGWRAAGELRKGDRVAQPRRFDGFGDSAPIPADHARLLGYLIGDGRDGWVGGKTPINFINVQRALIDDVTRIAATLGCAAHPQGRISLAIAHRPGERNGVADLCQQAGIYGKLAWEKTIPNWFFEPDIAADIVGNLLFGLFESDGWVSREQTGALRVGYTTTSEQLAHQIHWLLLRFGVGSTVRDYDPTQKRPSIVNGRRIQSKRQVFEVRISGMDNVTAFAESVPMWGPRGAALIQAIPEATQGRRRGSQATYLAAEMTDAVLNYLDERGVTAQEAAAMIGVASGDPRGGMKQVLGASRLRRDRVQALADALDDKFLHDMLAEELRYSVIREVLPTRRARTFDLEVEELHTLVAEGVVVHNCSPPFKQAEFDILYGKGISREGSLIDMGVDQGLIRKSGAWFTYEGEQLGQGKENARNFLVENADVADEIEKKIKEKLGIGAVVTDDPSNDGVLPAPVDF
Mtb bLac sens: beta-lactam sensitization of Mtb H37Rv; M. tuberculosis H37Rv growth with meropenem, percent inhibition; hits of this screen are not shown here; inhibition, % at 25 µM; hit rate 0.27% among 330,000;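 active = about 74% or more and at least 40 points above the plate without the antibiotic, then above 30% in a dose series; inconclusive = first-round hits that could not be retested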;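 note: growth measured after seven days incubation then overnight dye step; 0% = bacteria only wells and 100% = bacteria with antibiotic; twin plates without the antibiotic show which effects depend on it; some results filed as inactive read as strong as hits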
Arbovirus anti: antivirals against arbovirus infection; arbovirus infection cell-based antiviral screen; inhibition, % at 10 µM; hit rate 0.37% among 200,000;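 active = inhibition from about 30%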;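 note: bluetongue infection of BSR cells; cell survival read as ATP light after 72 h; 0% = infected wells without compound and 100% = uninfected wells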
YopH inh: YopH (Yersinia) phosphatase inhibition. fluorescence Ex485/Em525. inhibition, %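 (about 10 µM by stock and volumes)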. hit rate 0.16% among 140,000;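 active = inhibition of 50% or more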;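 note: controls were vehicle for no effect and minimum signal wells for full effect; inactives centre near -20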
Mtb growth: M. tuberculosis H37Rv growth inhibitors, H37Rv strain (AID 1626) | M. tuberculosis H37Rv growth inhibition; higher % means a stronger effect | one-dose inhibition, % at 10 µM; IC50 in µM for titrated hits | hit rate 0.95% among 220,000;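 active = confirmed in a dose series; inconclusive = inhibition above 80% but not taken into the dose series; inactive = below 80% or under 30% at every dose of the series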;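 note: bacteria incubated seven days before Alamar blue readout; 0% = bacteria only wells and 100% = bacteria with antibiotic wells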
Arbovirus anti repeat: also measured in Arbovirus anti; calls as there; inhibition, %; measured here: 10K subset replicate screen; many hits read low in the repeat;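 first of two repeat runs on a subset; 0% = infected and 100% = uninfected wells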
An asterisk follows results filed as active; ? = inconclusive; nt = no result given.

SMILES | RecA intein inh | Mtb bLac sens | Arbovirus anti | YopH inh | Mtb growth | others
CCCC(=O)Nc1ccc(N2CCCCC2)cc1 | -1.4 | -6 | -4 | -16 | -6% | Arbovirus anti repeat=3
Cn1c(=O)c2c(ncn2CC(=O)N/N=C/C=C\c2ccccc2[N+](=O)[O-])n(C)c1=O | -3.8 | -6 | nt | nt | -12%
O=C(NCc1nc2ccccc2[nH]1)C1=C[C@@H](c2ccc(C(F)(F)F)cc2)C[C@@H](OCc2ccc(CO)cc2)O1 | 7.5 | 88 | nt | nt | 5%
COc1cc(OC)cc(C(=O)N/N=C/c2ccc(OC)c(COc3ccc4ccccc4c3)c2)c1 | -3.1 | 7 | -23 | -27 | nt
O=C1NC(=O)C2(COC3(CCCC3)OC2)S1 | 0.3 | -5 | 1 | -2 | -9%
COc1ccc(Nc2nc(-c3cccc([N+](=O)[O-])c3)nc3ccccc23)c(OC)c1 | -0.5 | -1 | -14 | -21 | -8%
O=C(Nc1cccn(Cc2c(Cl)cccc2Cl)c1=O)c1c(Cl)cccc1Cl | -5.0 | -13 | -8 | -34 | -7%
CCCCCCCC(=O)Nc1cc(C(=O)NCc2ccc(C)cc2)ccc1N1CCC2(CC1)CC(c1cccc(Br)c1)=NO2 | -3.7 | -3 | nt | nt | nt
COc1ccc(CN(C(=O)c2ccccc2OC)C2CCS(=O)(=O)C2)cc1 (stereo unspecified) | nt | 5 | 9 | -178 | 0%
COc1cc(C(=O)N2CCc3ccccc32)cc(OC)c1OC | -4.4 | -1 | nt | nt | nt
CCn1c(SCC(=O)c2ccc(Cl)s2)nnc1-c1cccs1 | 2.4 | 3 | 15 | -18 | 5%
OCC[C@@H]1C[C@H](O)[C@@H](O)[C@]2(CCc3ccccc3O2)O1 | -3.1 | 7 | nt | nt | nt
CC(C)(C)c1ccc(NC(=O)c2ccccc2)c([N+](=O)[O-])c1 | 2.0 | 33 | -5 | nt | 3%
CC(=O)Nc1cc(C(N)=O)c(Cl)cc1Cl | -1.7 | 0 | 6 | -30 | 0%
O=C1C2ON(c3ccccc3)C(c3ccncc3)C2C(=O)N1c1ccccc1 (stereo unspecified) | 0.5 | 2 | -3 | -36 | -8%
O=C(Nc1ccc2c(c1)OCCO2)C(=O)NC1CC1 | -3.5 | 6 | nt | nt | nt
CCOC(=O)C1(CCOc2ccccc2)CCN(Cc2cc(OC)ccc2OC)CC1 | 1.9 | -2 | nt | nt | nt
CCc1nc2ccccc2c(C(=O)OCC(=O)NCc2ccco2)c1C | 2.4 | -10 | 0 | -6 | -1%
CC1CCCN(C(=O)CNC(=O)c2ccco2)C1 (stereo unspecified) | -3.3 | -4 | nt | nt | nt
CC(=O)Nc1ccc(-c2ccccc2)s1 | 2.0 | -4 | 0 | -33 | -6%
CS(=O)(=O)c1ccc(C(=O)NCC(c2ccco2)N2CCCCC2)cc1 (stereo unspecified) | -3.2 | -15 | 9 | nt | -3%
O=c1oc2cc([N+](=O)[O-])ccc2nc1/C=C(\O)c1cccc(Br)c1 | 5.5 | 22 | nt | nt | -4%
Cc1ccc(NS(=O)(=O)c2cc3c4c(cccc4c2)C(=O)NC3=O)cc1 | -1.0 | 1 | 9 | nt | 0%
COc1cccc(-n2cc(C(=O)O)c3ccccc3c2=O)c1 | -1.0 | 8 | -1 | -28 | -13%
Clc1ccc(/C=N/Nc2ncnc3ccccc23)cc1Cl | -1.3 | 91 | 4 | -43 | nt
COc1ccc2c(c1)c1nc3ccccc3nc1n2CCn1c(=O)oc2ccccc21 | -3.0 | -9 | 1 | -26 | 5%
CC1(C)CC(c2nc(-c3ccccc3)cs2)CCS1 (stereo unspecified) | 7.1 | 13 | 7 | -21 | 6%
COc1ccccc1CN1CC(C(=O)NCc2cccc(Cl)c2)CCC1=O (stereo unspecified) | -0.2 | -2 | nt | nt | nt
CCc1cccc(CC)c1NC(=O)COc1ccccc1C(=O)c1cc(C#N)c(=O)n(C2CCCCC2)c1 | 18 | -5 | -14 | -24 | 9%
O=C(N/N=C/c1ccc2ncccc2c1)c1cccc([N+](=O)[O-])c1 | -1.1 | 5 | nt | nt | nt
Cc1ccc(S(=O)(=O)NNC(=S)NCC2CCCO2)cc1 (stereo unspecified) | 2.4 | 0 | nt | nt | nt
COc1cccc(CNc2ccc3[nH]c(=O)[nH]c3c2)c1OCc1ccccc1F | 4.8 | 0 | nt | nt | nt
COCCn1c(SCC(=O)c2ccc3c(c2)OCCO3)nnc1C(C)C | nt | -4 | 3 | -7 | 5%
CC(C)NC(=O)C(=O)c1cn(C)c2ccccc12 | 5.1 | -6 | 5 | nt | 3%
Cc1cc(C)c(S(=O)(=O)N(C)CC(=O)NCc2ccccn2)c(C)c1 | 1.9 | -5 | 0 | nt | -9%
Cn1c(N)c(C(=O)c2ccc(Cl)cc2)c(=O)n(C)c1=O | -3.8 | 5 | -9 | -47 | -3%
COc1ccc(CNC(=O)C2=CCN(S(=O)(=O)c3ccc(C)cc3)CC2)cc1 | -0.3 | -1 | nt | nt | 7%
N#Cc1cnn(Cc2ccccc2)c1/N=C/N1CCOCC1 | 0.4 | 4 | 6 | -6 | 6%
COc1ccc(NC(=O)/C(Cl)=C(/Cl)S(=O)Cc2ccccc2)cn1 (stereo unspecified) | 78* | 100 | -45 | -20 | ?
O=C(CN1CCC(NC(=O)C2CCCCC2)CC1)NCc1ccco1 | 4.4 | -8 | 2 | nt | -9%

Grouped by structure: the entries above containing a cyano group.
SMILES | RecA intein inh | Mtb bLac sens | Arbovirus anti | YopH inh | Mtb growth | others
CCc1cccc(CC)c1NC(=O)COc1ccccc1C(=O)c1cc(C#N)c(=O)n(C2CCCCC2)c1 | 18 | -5 | -14 | -24 | 9%
N#Cc1cnn(Cc2ccccc2)c1/N=C/N1CCOCC1 | 0.4 | 4 | 6 | -6 | 6%

Next structures follow:
SMILES | RecA intein inh | Mtb bLac sens | Arbovirus anti | YopH inh | Mtb growth | others
COc1ccc(CCC(=O)Nc2cccc(Cl)c2)cc1 | 4.0 | 3 | -6 | -27 | 10%
Cc1cc(C)cc(C(=O)N2CCC(C(N)=O)CC2)c1 | 1.3 | -9 | -2 | 4 | 1%
Cc1nnc(NC(=O)CCn2c(=O)oc3ccc(Cl)cc32)s1 | -3.9 | 10 | nt | nt | nt
Cc1ccc(C(=O)NCC(=O)NCC(=O)OCc2ccc(F)cc2)cc1 | 0.9 | 0 | 1 | nt | 0%
CCOC(=O)c1c(S(=O)(=O)N2CCCC(C(=O)Nc3cccc(C)n3)C2)c(C)n(C)c1C (stereo unspecified) | -3.9 | 2 | nt | nt | nt
COc1cccc(C(=O)c2cc3ccc(O)cc3oc2=O)c1 | 2.6 | 12 | -1 | -9 | 1%
CCCOc1ccc(C2C3=C(Nc4nc(N)[nH]c(=O)c42)c2ccccc2C3=O)cc1 (stereo unspecified) | 4.2 | -12 | nt | nt | -3%
Cc1ccc2oc(C(=O)N(C)Cc3ccon3)c(C)c2c1 | 2.7 | 4 | nt | nt | nt
CN(C)c1ccc(N2C(=O)CSC2=S)cc1 | -4.7 | 5 | -1 | -47 | 1%
COc1ccc(CNc2nc(NCc3ccc(OC)cc3)n(C(C)=O)n2)cc1 | -0.8 | 5 | 3 | -8 | 1%
CCN(CC)c1ccc(/C=N/Nc2nc3ccccc3[nH]2)c(O)c1 | 30 | 8 | -36 | -4 | 2%
CCN(CC)C(=O)Oc1ccc(Cl)c2cccnc12 | 1.8 | 9 | -1 | nt | 7%
Cc1ccc([N+](=O)[O-])cc1NC(=O)CN(C(=O)c1ccc(Cl)cc1)C1CCCCC1 | 5.7 | -4 | -27 | -45 | 4%
CCOP(=O)(OCC)/C(C#N)=C/c1ccc(-c2ccc(F)cc2F)o1 | -1.2 | 65 | nt | nt | 77%
COCCCNC(=S)N(Cc1ccccc1)Cc1ccccc1 | 2.3 | -2 | 8 | 11 | 3%
COc1ccc(NC(=O)CCN2C(=O)c3ccccc3S2(=O)=O)cc1 | 0.7 | -7 | 0 | -1 | 1%
COc1cc(-c2nnc(SCc3cc(=O)oc4cc(O)c(O)cc34)o2)cc(OC)c1OC | 1.1 | 6 | -7 | -10 | -9%
O=C(CC1C(=O)NCCN1Cc1ccc(Cl)c(F)c1)NCCc1cccnc1 (stereo unspecified) | 0.8 | -3 | nt | nt | -9%
COc1ccc(CNC(=O)CCCn2nc(C)c3c(C)n(-c4ccc(C)cc4)nc3c2=O)cc1 | -1.6 | 0 | nt | nt | nt
CCc1nnc(NC(=O)c2ccc(S(=O)(=O)N3CCCCCC3)cc2)s1 | 1.4 | -4 | -1 | -21 | 4%

Part of the list above in order of number of heavy atoms, largest number first:
SMILES | RecA intein inh | Mtb bLac sens | Arbovirus anti | YopH inh | Mtb growth | others
CCOC(=O)c1c(S(=O)(=O)N2CCCC(C(=O)Nc3cccc(C)n3)C2)c(C)n(C)c1C (stereo unspecified) | -3.9 | 2 | nt | nt | nt
COc1cccc(C(=O)c2cc3ccc(O)cc3oc2=O)c1 | 2.6 | 12 | -1 | -9 | 1%
Cc1cc(C)cc(C(=O)N2CCC(C(N)=O)CC2)c1 | 1.3 | -9 | -2 | 4 | 1%

Next entries
SMILES | RecA intein inh | Mtb bLac sens | Arbovirus anti | YopH inh | Mtb growth | others
O=C(Nc1nnc(SCCN2CCOCC2)s1)C1CC(=O)N(c2ccccc2)C1 (stereo unspecified) | -3.1 | -2 | nt | nt | nt
COCCNC(=O)C(OC(=O)c1ccco1)c1ccccc1OC (stereo unspecified) | nt | -5 | 2 | -41 | -10%
CC(C)Cc1ccc(/C(=N/O)C(=O)O)s1 | -2.2 | 1 | 2 | 4 | -9%
Cc1cc(C(=O)NCc2ccc(F)cc2)n(-c2ccccc2)n1 | 1.1 | 17 | nt | nt | 1%
COc1ccc(OCC(O)CNC2CCCC2)cc1 (stereo unspecified) | 1.6 | -6 | nt | nt | nt
CC1CCC(N(C(=O)c2csnn2)C(C(=O)NC(C)(C)C)c2cccnc2)CC1 (stereo unspecified) | -0.1 | 8 | 3 | nt | 1%
Cc1cc(C(=O)N/N=C/c2ccc(N(C)C)cc2)c2ccccc2n1 | -0.3 | -3 | -10 | nt | 3%
CCOc1ccccc1-c1nc(C(N)=O)c2[nH]c(=O)n(-c3ccccc3)c2n1 | -2.5 | 6 | -1 | -21 | -12%
CC(=O)Cc1nsc(Nc2ccccc2)n1 | -0.1 | -8 | -1 | 4 | -7%
COc1ccc(NC(=O)CNC(=O)c2ccc([N+](=O)[O-])cc2)cc1 | -2.1 | -6 | 1 | nt | -7%
COc1ccc(CCNC(=O)COc2ccc(N(C)S(=O)(=O)c3ccc(C)cc3)cc2)cc1 | 2.8 | -10 | -4 | nt | 1%
O=C(NCCNS(=O)(=O)c1ccccc1)c1cc(OCC(F)(F)F)ccc1OCC(F)(F)F | nt | 4 | -7 | -10 | -9%
O=C1CSC(c2cccc(O)c2)N1Cc1ccccc1 (stereo unspecified) | -2.2 | -8 | nt | nt | nt
COc1ccc(/C=C2\SC(=S)N(CCC(=O)NCCc3ccc(O)cc3)C2=O)cc1 | 3.9 | 10 | nt | nt | nt
CCS(=O)(=O)N1CCN(c2ccnc3cc(Cl)ccc23)CC1 | 1.0 | -5 | nt | nt | 1%
CCOc1ccc(CN(C)C(=O)CCl)cc1 | 55* | 99 | -29 | nt | 27µM*
CCC(C(=O)NCC1CCCO1)n1nc(C)c2sc3ccccc3c2c1=O (stereo unspecified) | 0.0 | -5 | nt | nt | nt
Cc1cnc(C(=O)N2CCc3c([nH]c4ccccc34)C2c2ccc(F)cc2)cn1 (stereo unspecified) | 11 | 2 | 2 | nt | 6%
COc1cccc(OC)c1C(=O)Nc1cccnc1 | -2.1 | 3 | 6 | nt | 4%
Cc1c(-c2nc(-c3ccncc3)no2)cccc1[N+](=O)[O-] | -2.2 | -1 | nt | nt | -4%
CCc1ccccc1NC(=O)Nn1cnnc1 | 1.0 | 1 | nt | nt | nt
CCCOc1c(OC)cc(Cl)cc1C1NC(=O)NC(C)=C1C(=O)NCc1ccccc1 (stereo unspecified) | -1.7 | 2 | 2 | 3 | 0%
Nc1ccc(NC(=S)Nc2ccccc2)cc1 | -0.3 | 6 | nt | nt | -7%
CC(/C=N/NC(=O)CSc1nnc(SCc2ccccc2)s1)=C\c1ccco1 | 13 | 42 | -3 | -10 | nt
Cc1ccc(Cl)cc1NC(=O)C1CCCN(S(=O)(=O)c2c(C)noc2C)C1 (stereo unspecified) | -1.0 | -9 | 0 | -25 | 2%
Cc1ccc(C)c(-n2c3nc(=O)n(C)c(=O)c-3cc3ccccc32)c1 | -178 | -1 | nt | nt | -3%
COc1ccc2c(=O)c(C(=O)NCCc3ccc(OC)c(OC)c3)c[nH]c2c1 | -1.1 | 13 | 3 | -44 | 0%
COc1ccc2[nH]cc(/C=C(/C#N)S(=O)(=O)c3ccccc3)c2c1 | 4.4 | -7 | -6 | -26 | 1%
CSc1ccccc1C(=O)C1CCCN(C(=O)CCN2CCCO2)C1 (stereo unspecified) | 0.0 | 3 | 6 | nt | 3%

An excerpt; the hit share may differ from the screen's.
